rRNA inh HTS: inhibits bacterial ribosomal RNA function over humanized ribosomes | E. coli WT GFP vs humanized-ribosome RFP mutants, fluorescence, 24 h; stronger effect = lower value; DMSO median 0, no signal -100 | GFP signal change (wild-type ribosome), % (concentration not given with the values) | hit rate 1.6% among 350,000 | AID 720706;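 active = significant combined selectivity score with lowered wild-type GFP, culture density cut under 30%, mutant RFP and density less affected; inactive = any of these conditions unmet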; note: one replicate is shown; some compounds called inactive have numbers as strong as hits
HNF4A DNA FP: change in binding of human HNF4 alpha to DNA; P41235; hit rate 0.3% among 360,000; HNF4a-FITC DNA binding, fluorescence polarization, 1 h; activity change, % at 10 µM; in the data active = activity change above about 30%, passing the limit was not always enough;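 note: controls were the assay level and a saturating level of protein; the project sought stronger binding though the title names inhibitors; some compounds called inactive have numbers as strong as hits; positive values seem to mean higher polarization but the record does not say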
Target sequence (P41235 whole entry, looked up): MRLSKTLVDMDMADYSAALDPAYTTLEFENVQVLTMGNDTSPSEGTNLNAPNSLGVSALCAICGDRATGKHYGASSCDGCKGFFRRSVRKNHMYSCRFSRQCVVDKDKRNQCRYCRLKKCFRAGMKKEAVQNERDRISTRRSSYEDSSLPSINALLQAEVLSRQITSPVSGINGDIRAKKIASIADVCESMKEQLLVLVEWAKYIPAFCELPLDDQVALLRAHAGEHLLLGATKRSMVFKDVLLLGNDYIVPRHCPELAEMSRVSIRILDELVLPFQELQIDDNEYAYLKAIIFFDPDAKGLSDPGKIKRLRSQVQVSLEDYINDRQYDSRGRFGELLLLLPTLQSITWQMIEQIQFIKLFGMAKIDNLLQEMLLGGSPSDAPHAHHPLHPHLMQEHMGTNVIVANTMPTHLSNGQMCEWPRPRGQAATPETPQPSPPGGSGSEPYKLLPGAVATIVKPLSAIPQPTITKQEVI
Vif TR-FRET: inhibitors of Vif binding to APOBEC3G peptide, primary screen, biochemical, TR-FRET, GST-Vif 1-94, biotin-A3G peptide, dose response retest (AID 1117319) | inhibition, %, or IC50 in µM where a hit was titrated | hit rate 0.57% among 260,000 | TR-FRET GST-Vif / biotin-A3G peptide binding; higher % means a stronger effect; test concentration not given here; strong numbers were not always called active;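 active = above the screen mean plus three standard deviations and confirmed in dose response; inconclusive = results disagree or hit not tested in dose response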;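 note: Vif residues 1-94 fused to GST binding biotinylated APOBEC3G peptide 110-148; 0% = full assay without inhibitor and 100% = GST in place of GST-Vif; retest series ran down from 100 µM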
AF4-AF9 inh: inhibitors of human MLL-AF4/AF9 interaction. AlphaScreen, biotin-AF4 peptide binding to FLAG-AF9. P42568. hit rate 0.47% among 350,000. inhibition, % at 10 µM;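 active = every replicate reaching a set inhibition limit, whatever the replicate mean, cut at about 25% in these data; inconclusive = mean inhibition reaches that limit but some replicates miss it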;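 note: 0% = plate neutral control median and 100% = total signal loss; the record names both 10 and 1 µM as test concentration; the first replicate is given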
Target sequence (P42568 whole entry, looked up): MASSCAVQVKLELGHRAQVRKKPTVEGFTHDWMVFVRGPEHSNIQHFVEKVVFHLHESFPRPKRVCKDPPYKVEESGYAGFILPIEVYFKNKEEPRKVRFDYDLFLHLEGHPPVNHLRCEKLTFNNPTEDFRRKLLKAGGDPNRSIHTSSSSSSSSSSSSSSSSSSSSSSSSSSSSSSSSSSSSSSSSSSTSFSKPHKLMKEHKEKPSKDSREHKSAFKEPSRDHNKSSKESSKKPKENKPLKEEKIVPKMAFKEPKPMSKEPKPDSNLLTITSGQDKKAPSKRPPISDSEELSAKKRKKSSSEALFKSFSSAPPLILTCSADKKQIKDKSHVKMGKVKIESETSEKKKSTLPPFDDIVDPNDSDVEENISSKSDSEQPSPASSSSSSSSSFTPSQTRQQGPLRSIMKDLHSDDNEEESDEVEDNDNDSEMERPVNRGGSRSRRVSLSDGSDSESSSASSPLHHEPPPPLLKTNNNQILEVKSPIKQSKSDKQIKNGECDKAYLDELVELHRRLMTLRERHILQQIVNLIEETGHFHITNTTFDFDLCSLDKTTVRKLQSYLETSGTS
FGF22 binding: shifts melting point of recombinant human FGF22; AID 651658; recombinant FGF22 thermal shift, SYPRO orange fluorescence; percent of sucrose octasulfate shift, DMSO zero; Q9HCT0; hit rate 1.5% among 340,000; calls only at 9.99 µM;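 active = melting point raised past a set limit in the mean and every replicate; inconclusive = no clear call; three in four hits are not shown here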
ALR inh: inhibitors of human sulfhydryl oxidase ALR; P55789; hit rate 3.8% among 290,000; purified ALR, DTT oxidation, H2O2 HRP-luminol luminescence; inhibition, % (no concentration beside the values);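 active = mean and each replicate at 75% or more; inconclusive = only one of the two met; inactive = neither met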;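 note: stock transfer was 7.5 nL into about 7.5 µL; 0% = neutral wells and 100% = wells with inactivated enzyme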
E coli growth: inhibitors of Escherichia coli growth. OD600, 23 h; stronger effect = lower value. OD600 absorbance (no concentration beside the values). hit rate 0.21% among 330,000. AID 1053175;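 active = OD600 absorbance below the run mean of sample wells minus 3.6 SD, in any replicate, cut at about 0.56 in these data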;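 note: stock transfer was 300 nL into about 60 µL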
rRNA inh HTS OD600: further read-out of rRNA inh HTS, marked with its call; OD600 change, %; measured here: OD600 growth;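 optical density of the mix in the first replicate; 0 = DMSO median and -100 = no signal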
rRNA inh HTS RFP: recorded beside rRNA inh HTS, whose call it bears; RFP signal change, %; measured here: RFP humanized mutant strains;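 first replicate; 0 = DMSO median and -100 = no signal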
Numbers without * were called inactive; i = inactive; ? = inconclusive; / = no result given. A portion of the library, so the mix of outcomes need not match the whole.

canonical_smiles	rRNA inh HTS	rRNA inh HTS OD600	rRNA inh HTS RFP	HNF4A DNA FP	Vif TR-FRET	AF4-AF9 inh	FGF22 binding	ALR inh	E coli growth
C=CCn1c(SCC(=O)N2CC(C)OC(C)C2)nnc1-c1ccncc1 (centres undefined)	11	5	0.7	-2.5	-9%	-1.4	i	-2	0.68
COc1ccc(OC)c(NC(=O)CNC(=O)c2cccs2)c1	/	/	/	2.7	8%	/	/	-28	0.71
COc1ccc(NC(=O)C2CCN(c3cnccn3)CC2)cc1OC	5	5	-3.6	1.6	/	0.4	i	-10	0.7
COc1ccc(-n2nnnc2C(c2cccs2)N2CCN(C/C=C/c3ccccc3)CC2)cc1 (centres undefined)	-30	-55	60	3.3	/	8.5	i	/	/
Cc1cc(C)nc(N2CCCC(C(=O)Nc3ccc4c(c3)OCCO4)C2)n1 (centres undefined)	/	/	/	-5.8	?	/	/	-7	0.74
CCOC(=O)C(=CNc1nc(-c2ccc3ccccc3c2)cs1)C(=O)OCC	11	16	3.8	-1.5	-13%	-2.0	i	-4	0.71
O=Nc1ccc(Cl)cn1	6	21	2.0	/	/	-1.4	i	/	/
COCCNc1nc2cc(-c3cccc(Cl)c3)sc2c(=O)n1C	8	9	2.0	3.4	/	0.9	i	/	/
Cc1ccc(S(=O)(=O)N[C@@H]2C=C[C@@H](CC(=O)NCCCN(C)C)O[C@H]2CO)cc1	1	-7	1.4	/	/	-0.1	i	/	/
CNc1snc(C)c1C(=O)OC(C)C(=O)Nc1ccc(F)cc1 (centres undefined)	2	-17	0.4	-1.4	18%	0.8	i	-7	0.65
CCOCCCNC(=O)c1cc(Sc2nnc(C)s2)nc2ccccc12	-19	-21	1.5	1.7	11%	-2.8	i	3	0.69
COc1ccc(C(CNC(=O)C(C)Sc2ccccc2)N2CCOCC2)cc1 (centres undefined)	6	9	-11	4.6	-4%	4.4	i	/	0.7
O=C(O)CCN(CC(=O)c1ccc(Cl)cc1)S(=O)(=O)c1ccc([N+](=O)[O-])cc1	-4	12	-4.3	3.9	/	-0.4	i	54	0.71
COc1ccccc1C#Cc1ccc2c(c1)O[C@H](CN(C)Cc1cncnc1)[C@H](C)CN([C@@H](C)CO)S2(=O)=O	-9	-18	9.3	/	/	5.7	i	/	/
O=C1c2cccc(OCC(=O)N3CCCc4ccccc43)c2CCN1Cc1ccc(Br)cc1	/	/	/	1.4	/	/	/	-11	0.74
CCn1c(CNC(=O)c2cccs2)nnc1SCC(=O)Nc1cc(Cl)ccc1C	/	/	/	0.9	2%	/	/	-6	0.65
COc1cc(CC(=O)NCCc2ccc(OCc3ccccc3)cc2)c([N+](=O)[O-])cc1OC	/	/	/	-1.4	6%	/	/	-10	0.74
Nc1nc(Nc2ccccc2)nc(C(F)(F)F)n1	8	11	3.0	-1.0	/	-2.6	i	-5	0.68
O=C(NCCN1CCN(c2ccccc2Cl)CC1)Nc1ccccc1	-3	-4	-1.9	-2.3	-2%	-4.5	i	71	0.61
CCCn1nnc(NC(=O)/C=C/c2ccccc2)n1	4	2	-0.4	0.1	-4%	-8.3	i	-4	0.69
Cc1ccccc1S(=O)(=O)N1C[C@@H](O)COC[C@@H]2O[C@@H](CC(=O)N3CCOCC3)CC[C@H]21	0	12	-3.4	/	/	-0.8	i	/	/
O=C(CCn1c(=O)[nH]c2ccsc2c1=O)N1CCN(c2ccc([N+](=O)[O-])cc2)CC1	-21	-32	-5.2	3.1	/	-12	i	21	0.71
O=C(NCC[C@H]1CC[C@H](NC(=O)C2CC2)[C@@H](CO)O1)c1cc(Cl)cc(Cl)c1	-2	-6	-0.4	/	/	-3.1	i	/	/
CCN1CCCC(NC(=O)c2scc3c2CCCC3)C1 (centres undefined)	2	4	-4.1	-0.8	19%	47*	i	-40	/
Cc1noc(C)c1S(=O)(=O)Nc1ccc2c(c1)CC(=O)N([C@@H](C)CO)C[C@H](C)[C@@H](CN(C)S(=O)(=O)c1c(C)noc1C)O2	2	6	-2.9	/	/	-0.6	i	/	/
CC1(c2ccc(OCC#N)cc2)C=C(c2ccc(OCC#N)cc2)n2nc(C(F)(F)F)nc2N1 (centres undefined)	-27*	-17*	-2.8*	1.5	-4%	-1.2	i	-16	0.73
CCCCn1c(N)c(N(CCOC)C(=O)CSc2nnc(-c3ccc(C(C)(C)C)cc3)n2N)c(=O)[nH]c1=O	3	2	2.6	5.1	9%	0.9	i	-5	0.67
O=C(NCc1ccccc1)C1CCCN(c2cnccn2)C1 (centres undefined)	5	4	-0.5	-3.6	/	-5.6	i	-5	0.69
O=C(Nc1ccc(Cc2ccncc2)cc1)C1CCC(N2C(=O)C3C4C=CC(C4)C3C2=O)CC1 (centres undefined)	/	/	/	-1.5	-4%	/	/	-8	0.74
COc1ccc(C(=O)CCC(=O)NC2=NCCS2)cc1	5	0	21	1.9	/	-0.5	i	-12	0.71
O=C(c1ccccc1Oc1ccccc1)N1CCN(c2ccccc2)CC1	/	/	/	-2.1	-3%	/	/	38	0.68
O=C(Cc1cccc(NC(=O)C2CCN(C(=O)C3CCC3)CC2)c1)Nc1cccc(C(=O)N2CCCCC2)c1	/	/	/	0.0	1%	-1.7	i	/	/
CCOC(=O)[C@]12Cc3c(cc(OC)c(OC)c3OC)[C@H]1N(C1CCCCC1)C(=O)c1cc(OC)ccc12	-50	-77	-17	4.2	/	4.8	i	/	/
CCOc1ccccc1/C=N/NC(=O)C[n+]1ccccc1	20	21	0.2	-2.5	/	-2.6	i	14	/
CCN(CC)c1ncnc2scc(C3COc4ccccc4O3)c12 (centres undefined)	/	/	/	1.9	/	/	/	-5	0.71
COc1cccc(Nc2nc(C(N)CC(C)C)cs2)n1 (centres undefined)	-10	-26	0.1	-5.5	/	11	i	/	/
COC(=O)c1ccc(CN2CCC(Oc3ccc(C(=O)N4CCCCC4)cc3)CC2)cc1	15	8	-1.3	6.3	/	2.0	i	/	0.67
COc1ccc(Cl)cc1NC(=O)Cc1c(F)cccc1Cl	6	6	6.8	-0.1	-2%	4.7	i	-12	0.71
Cc1nn(-c2ccccc2)c(Cl)c1C(=O)Nc1nnc(C2CCCCC2)s1	/	/	/	5.0	-3%	/	/	3	0.73
COc1cc(NC(=O)C2CCCN(S(=O)(=O)c3ccc4c(c3)oc(=O)n4C)C2)cc(OC)c1 (centres undefined)	4	6	1.4	2.0	1%	-13	i	-15	0.73
Cc1noc(C)c1COc1ccc(C(=O)OCC(=O)NC23CC4CC(CC(C4)C2)C3)cc1	/	/	/	-2.6	18%	/	/	-14	0.78
CCCC(c1nnnn1C(C)(C)CC)N1CCN(C(=O)c2ccco2)CC1 (centres undefined)	2	1	-2.1	4.5	-3%	-1.0	i	/	0.67
Cc1ccc(OC(C)C(=O)Nc2ncc(Cl)cc2Cl)c([N+](=O)[O-])n1 (centres undefined)	-12	-5	-0.1	-0.2	-3%	0.3	i	-4	0.72
COc1ccc(NS(=O)(=O)c2ccc(NC(C)=O)cc2)nn1	12	6	0.1	-5.6	/	-6.2	i	-4	0.69
O=c1c([N+](=O)[O-])c(N2CCCCCC2)c2ccccc2n1-c1ccccc1	/	/	/	-1.0	-1%	/	/	0	0.75
O=C(COc1ccc(Cl)cc1)Nc1ccc2c(c1)OCO2	-7	-18	-2.2	-3.7	/	0.8	i	-12	0.67
Cc1nc2ccccc2n1CCCOc1ccccc1	/	/	/	-0.9	-6%	/	/	-23	0.64
Cc1cc(C)c(C(=O)CN2C(=O)NC3(CCCCC3)C2=O)cc1C	8	4	-3.1	1.5	0%	-34	i	1	0.72
COC(=O)c1ccc(C2/C(=C(/O)c3ccc4c(c3)CC(C)O4)C(=O)C(=O)N2Cc2cccnc2)cc1 (centres undefined)	/	/	/	-3.4	/	/	/	-2	0.69
COc1cccc(C(=O)N2CCN(C3CCN(Cc4ccccc4)CC3)CC2)c1OC	13	10	-0.9	1.0	?	-15	i	-2	0.69
COC(=O)c1ccccc1SCC(=O)Nc1ccc(N2CCOCC2)cc1	-8	-13	2.5	1.3	-8%	0.1	i	-3	0.72
CC(=O)N(C)C[C@@H]1Oc2cc(C#CCN(C)C)ccc2S(=O)(=O)N([C@H](C)CO)C[C@@H]1C	5	5	1.1	/	/	-2.4	i	/	/
COc1cccc(-c2ccc3n(c2=O)C[C@H]2[C@H](CO)[C@@H](C(=O)N4CCOCC4)N[C@@H]32)c1	1	6	-2.3	/	/	0.3	i	/	/
CC1CN(c2nnc(NC(=O)c3ccccc3)s2)CC(C)O1 (centres undefined)	1	6	0.0	1.6	2%	1.7	i	8	0.65
Cc1cc(C)c(C)c(S(=O)(=O)NCCCN2CCOCC2)c1C	9	13	1.3	6.9	/	-2.2	i	6	0.67
O=C(Nc1cc(C(F)(F)F)ccc1N1CCOCC1)c1ccncc1	4	8	-1.4	0.7	/	-2.4	i	-1	0.72
Cc1csc(-c2coc3cc(O)cc(C)c3c2=O)n1	3	-10	-2.9	2.0	-3%	-3.3	i	0	0.66
CCOc1ccccc1N1CC(C(=O)NCCC2=CCCCC2)CC1=O (centres undefined)	-3	3	-1.4	0.2	-7%	-11	i	/	0.68
CS(=O)(=O)N1CCC(C(=O)Nc2ccccc2Cl)CC1	7	11	1.7	2.5	/	2.2	i	-22	0.67
CCCCNS(=O)(=O)c1ccc2nc(-c3cccnc3)cc(C(=O)NC(C)C)c2c1	7	8	0.1	0.1	-2%	1.4	i	-1	0.74

Remaining list, next part:
canonical_smiles	rRNA inh HTS	rRNA inh HTS OD600	rRNA inh HTS RFP	HNF4A DNA FP	Vif TR-FRET	AF4-AF9 inh	FGF22 binding	ALR inh	E coli growth
CN(N)C(=S)Nc1ccc(Cl)cc1	-8	-14	-2.0	-1.5	/	1.2	i	19	0.69
O=C(Cn1c(Cn2c(-c3cnccn3)nc3ccccc32)nc2ccccc21)c1ccc(OC(F)(F)F)cc1	23	16	2.7	-0.1	/	-1.7	i	/	/
Cc1cccnc1NC(=O)c1cccc(S(=O)(=O)NCc2ccccc2)c1	4	5	-1.0	1.0	10%	?	i	5	0.68
CC(C)Sc1nnc(NC(=O)C2CC2)s1	2	3	-0.3	5.5	/	3.4	i	6	0.74
COc1ccc2c(c1)c1ncn(CCN3CCCC3)c(=O)c1n2C	/	/	/	-2.7	-9%	/	/	-26	0.73
COc1ccc(NC(=O)N(C)C[C@H]2OCCCC[C@H](C)Oc3ccc(NC(=O)NC(C)C)cc3C(=O)N([C@@H](C)CO)C[C@H]2C)cc1	2	9	-4.0	/	/	2.6	i	/	/
Cc1cc(S(=O)(=O)N2CCCC2)ccc1OCC(=O)Nc1ccccc1	4	9	-0.6	5.4	-1%	-0.6	i	-6	0.69

Given with values under each structure: 3 of the compounds above
Value order: rRNA inh HTS | rRNA inh HTS OD600 | rRNA inh HTS RFP | HNF4A DNA FP | Vif TR-FRET | AF4-AF9 inh | FGF22 binding | ALR inh | E coli growth
- CC(C)Sc1nnc(NC(=O)C2CC2)s1
  2 | 3 | -0.3 | 5.5 | / | 3.4 | i | 6 | 0.74
- COc1ccc2c(c1)c1ncn(CCN3CCCC3)c(=O)c1n2C
  / | / | / | -2.7 | -9% | / | / | -26 | 0.73
- COc1ccc(NC(=O)N(C)C[C@H]2OCCCC[C@H](C)Oc3ccc(NC(=O)NC(C)C)cc3C(=O)N([C@@H](C)CO)C[C@H]2C)cc1
  2 | 9 | -4.0 | / | / | 2.6 | i | / | /
